# Vif TR-FRET: HIV-1 Vif–A3G interaction blockers – biochemical, TR-FRET, GST-Vif 1-94, biotin-A3G peptide, dose response retest, primary screen (AID 1117319); TR-FRET GST-Vif / biotin-A3G peptide binding; higher % means a stronger effect; test concentration not given here; strong numbers were not always called active; inhibition, %, or IC50 in µM where a hit was titrated; hit rate 0.57% among 260,000;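 active = above the screen mean plus three standard deviations and confirmed in dose response; inconclusive = results disagree or hit not tested in dose response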;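 also: Vif residues 1-94 fused to GST binding biotinylated APOBEC3G peptide 110-148; 0% = full assay without inhibitor and 100% = GST in place of GST-Vif; retest series ran down from 100 µM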
# LANA-H2A inh: blocks KSHV LANA binding to histone H2A/H2B; Q9QR71; cell-free LANA-H2A/H2B peptide, fluorescence polarization; inhibition, % (no concentration beside the values); hit rate 0.6% among 320,000; in the data active = inhibition mostly above about 10%, no sharp cut-off; inactive = mostly below about 6.7%;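 also: stock transfer was 7.5 nL into about 10 µL; 0% = median of vehicle wells and 100% = median of positive control wells; one replicate is shown; the record names a cut of 25% in any replicate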
# E coli growth: inhibitors of Escherichia coli growth. OD600, 23 h; stronger effect = lower value. OD600 absorbance (concentration not given with the values). hit rate 0.21% among 330,000;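 active = OD600 absorbance below the run mean of sample wells minus 3.6 SD, in any replicate, cut at about 0.56 in these data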;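 also: stock transfer was 300 nL into about 60 µL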
# UCH37 inh: inhibitors of human deubiquitinating enzyme UCH37; Q9Y5K5; purified proteasome/UCH37, Ub-AMC cleavage fluorescence; inhibition, % (test concentration not listed); hit rate 0.33% among 330,000; AID 588478;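 active = mean of two replicates above 20%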;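 also: 0% = compound-free wells with enzyme and 100% = wells lacking proteasome; stock transfer was 100 nL into about 20 µL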
# Target sequence (Q9Y5K5 whole entry, looked up): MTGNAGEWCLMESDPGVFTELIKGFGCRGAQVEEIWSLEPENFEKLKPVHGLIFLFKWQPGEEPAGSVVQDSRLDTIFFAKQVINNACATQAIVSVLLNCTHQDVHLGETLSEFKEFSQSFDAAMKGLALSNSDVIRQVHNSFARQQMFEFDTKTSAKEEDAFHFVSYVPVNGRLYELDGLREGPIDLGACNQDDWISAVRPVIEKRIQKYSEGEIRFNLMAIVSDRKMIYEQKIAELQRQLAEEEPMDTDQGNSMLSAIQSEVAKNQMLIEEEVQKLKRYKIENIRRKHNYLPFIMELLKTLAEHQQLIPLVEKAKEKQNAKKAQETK
#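 assay system = human UCH37 enzyme supplied as purified proteasome complex | amount = proteasome at 0.15 nM in the dispensed enzyme solution | schedule = 30 min compound-proteasome preincubation then 25 min substrate reaction, room temperature | measured by = fluorescence, ex 355 nm, em 460 nm | benchmarks = no-proteasome wells (full inhibition) and compound-free wells (no inhibition)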
# B2AR ag: human beta-2 adrenergic receptor agonism by FAP; P07550; Am2.2-beta2AR cells, FAP receptor internalization, flow cytometry; reference of the scale not given here; response, % (concentration not given with the values); hit rate 0.43% among 340,000; AID 504454;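 active = response above a set limit, near 3 SD of response in nonfluorescent compounds, cut at about 42% in these data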;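 also: stock transfer was 100 nL into about 11 µL; a reference agonist was the positive control; negative values mostly stem from fluorescent compounds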
# HNF4A DNA FP: change in binding of human HNF4 alpha to DNA. P41235. HNF4a-FITC DNA binding, fluorescence polarization, 1 h. activity change, % at 10 µM. hit rate 0.3% among 360,000. AID 1224865; in the data active = activity change above about 30%, passing the limit was not always enough;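 also: controls were the assay level and a saturating level of protein; the project sought stronger binding though the title names inhibitors; some compounds called inactive have numbers as strong as hits; positive values seem to mean higher polarization but the record does not say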
# Target sequence (P41235 whole entry, looked up): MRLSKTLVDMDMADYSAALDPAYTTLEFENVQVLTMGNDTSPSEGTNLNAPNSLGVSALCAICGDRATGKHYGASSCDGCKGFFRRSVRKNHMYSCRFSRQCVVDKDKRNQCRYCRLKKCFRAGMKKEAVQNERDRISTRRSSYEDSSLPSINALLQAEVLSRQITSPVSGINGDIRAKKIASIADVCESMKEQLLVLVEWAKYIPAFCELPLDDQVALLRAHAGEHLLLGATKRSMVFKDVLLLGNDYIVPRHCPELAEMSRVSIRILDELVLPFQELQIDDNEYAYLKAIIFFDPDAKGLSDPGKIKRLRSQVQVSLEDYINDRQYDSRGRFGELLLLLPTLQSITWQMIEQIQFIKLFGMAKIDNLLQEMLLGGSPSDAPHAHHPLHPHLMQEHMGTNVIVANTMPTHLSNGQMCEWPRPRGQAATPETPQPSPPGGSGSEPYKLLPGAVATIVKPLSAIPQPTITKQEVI
# A1 inh: inhibitors of the anti-apoptotic protein A1, read as caspase activation; MEF A1-2A-BIM cells, Caspase-Glo 3/7 luminescence, 3 h; percent of clofoctol response, vehicle zero; hit rate 0.066% among 330,000; caspase activation, % (no concentration beside the values);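 active = over half of replicate activation scores above 10%, or exactly half above 10 with the replicate mean above 10; inconclusive = replicate mean below 10 yet half the replicates above 10; inactive = over half of replicates below 10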;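 also: wells of about 30 µL received 50 nL stock; many hits fall short of the cut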
# Starred values were filed as active, the others as inactive; ? = inconclusive; . = no result given; & = joins results of further samples.
canonical_smiles	B2AR ag	UCH37 inh	E coli growth	A1 inh	Vif TR-FRET	LANA-H2A inh	HNF4A DNA FP
CCCCNS(=O)(=O)c1ccc2nc(-c3cccnc3)cc(C(=O)NCC(OC)OC)c2c1	11	5.8	0.68	-0.6	-3%	-2.2	-3.1
COc1ccccc1C(CNC(=O)c1cccc(S(=O)(=O)Nc2ccc(F)cc2)c1)N1CCCC1 (stereo unspecified)	2	0.6	0.64	.	.	.	9.3
S=C(Nc1ccc(Cl)cc1)N1CCN(Cc2ccccc2)CC1	-5	4.1	0.68	0.2	4%	2.8	-4.2
O=C(CN1CC(=O)Nc2ccccc21)NCCc1ccc(Cl)cc1Cl	15	-15	0.69	-0.5	-15%	4.4	1.0
Cc1ccc(N2CCN(CC(O)COc3ccccc3)CC2)cc1 (stereo unspecified)	-2	1.2	0.63	0.5	-5%	-4.8	3.2
NC(Cc1ccc2nsnc2c1)C(=O)O (stereo unspecified)	9	-0.1	0.72	-0.1	3%	-6.0	0.6
COCC(=O)Nc1nc2ccc(C)cc2s1	4	0.7	0.68	-6.2	13%	0.0	0.8
Cc1cc2cc(CCNC(=O)CCCc3ccccc3)c(=O)[nH]c2cc1C	-4	-4.3	0.71	-0.8	.	1.2	0.2
CCn1c(O)c(N=NC(=O)C(O)c2ccccc2)c2ccccc21 (stereo unspecified)	-1	7.9	0.69	0.3	-3%	-5.6	0.2
Cc1ccc(S(=O)(=O)NC(=O)c2cccn2C)cc1	14	2.2	0.73	0.1	4%	2.3	-3.9
Cc1ccc(C(=O)N2CCCC(C(F)(F)F)C2)cc1S(=O)(=O)N1CCCCC1 (stereo unspecified)	-5	2.6	0.71	-0.2	5%	0.2	-0.3
O=C(Cn1ccc([N+](=O)[O-])n1)Nc1nc2ccccc2s1	2	3.1	0.68	0.3	-4%	0.9	1.2
Oc1ccc(/C=N/n2c(-c3ccccc3)n[nH]c2=S)cc1	1	.	.	0.0	-4%	2.8	0.6
CCOC(=O)C1CCCN(C(=O)c2cc(S(=O)(=O)N3CCCCC3)ccc2C)C1 (stereo unspecified)	6	3.2	0.73	0.4	0%	-3.8	2.7
CCN(CC)S(=O)(=O)c1ccc(OC)c(NC(=S)Nc2ccc(C)c(C)c2)c1	4	-1.8	0.69	?	-6%	1.8	-0.6
CC(CCc1ccccc1)NS(=O)(=O)c1ccccc1F (stereo unspecified)	5	1.3	0.64	0.8	.	1.9	-1.3
Cc1sc(NC(=O)c2ccc(OCC(C)C)cc2)c(C(N)=O)c1-c1ccc(Cl)cc1Cl	-3	-260	0.71	0.1	-3%	-2.2	-0.1
CCc1nc2ccccc2n1CC(=O)N(C(C)CC)C1CCS(=O)(=O)C1 (stereo unspecified)	-3	0.2	0.68	0.9	27%	-5.7	2.0
Cc1nc2ccccc2c(=O)n1CCc1ccccc1	2	1.2	0.67	2.4	-5%	4.6	4.0
O=C(COc1ncnc2sccc12)Nc1ccc(F)cc1F	0	-1.0	0.68	0.4	.	-1.7	2.8
Fc1ccc(N2CCN(c3ncnc4nc[nH]c34)CC2)cc1	-5	4.3	0.66	-5.5	2%	1.3	-6.0
CC1=NN(c2ccc(Cl)c(C(=O)O)c2)C(=O)/C1=C/c1ccc(-c2ccccc2[N+](=O)[O-])o1	.	.	.	-0.1	9%	-3.4	-3.3
CN(C)CCNC(=O)c1csc(Nc2cccc3ccccc23)n1	6	4.2	0.7	0.5	.	4.4	2.5
Cc1ccc(O)c(CNc2cccc3cccnc23)c1	3	2.0	0.69	-0.2	10%	.	11
C[N+]12CCCCC1C(COC(=O)c1ccc3c(c1)OCO3)CCC2 (stereo unspecified)	-4	4.1	0.69	-0.2	4%	-26	-5.5
CC(=O)c1ccc(S(=O)(=O)N2CCN(CC#N)CC2)cc1	1	1.9	0.67	0.9	-9%	-4.0	-1.4
O=C(COC(=O)c1ccncc1)Nc1cc(Cl)ccc1Cl	10	2.0	0.72	0.9	-4%	7.0	-0.2
CCOC(=O)c1c(NCC(C)C)c2ccccc2[nH]c1=O	-5	0.8	0.71	1.6	0%	-3.1	-1.8
CCCC(O)(c1ccc(OC)cc1)C(CN(C)C)c1ccccc1 (stereo unspecified)	6	1.0	0.68	-1.9	?	-1.7	1.5
CCC(C)c1ccc(NC(=S)NCc2ccccc2OC)cc1 (stereo unspecified)	-1	1.3	0.68	.	-10%	.	0.5
COc1cccc(/C=C2/Sc3ccc(C(=O)NCCN4CCCC4)cc3NC2=O)c1	29	4.1	0.66	1.1	.	-2.9	11
Cc1sc2ncnc(N3CCC(C(=O)NNC(=O)COc4ccc(Cl)cc4)CC3)c2c1C	12	4.1	0.66	.	.	.	-1.1
COc1nc(C)ccc1-c1noc(-c2ccccn2)n1	-16	0.1	0.64	-4.9	1%	1.4	1.3
O=C(O)CCN1C(=O)/C(=C\c2cccc(OCc3ccccc3)c2)SC1=S	5	8.5	0.68	-2.1	.	1.2	-0.1
Cn1ncn2c(=O)c3c(nc12)-c1ccccc1CC31CCCC1	0	-119	0.71	0.4	-2%	-0.3	0.1
Cc1ccc2nc(N3C(=O)C(O)=C(C(=O)c4ccco4)C3c3ccc(O)cc3)sc2c1 (stereo unspecified)	-8	.	.	-0.2	.	8.0	6.0
S=C(NCc1ccco1)Nc1ccc(N2CCOCC2)cc1	-12	3.4	0.7	-1.1	30%	-0.8	0.5
Cc1ccc(C(=O)NC2CCC(C)CC2)o1 (stereo unspecified)	2	2.8	0.69	0.0	12%	-1.1	-2.9
O=C(c1ccccc1)C(O)c1ccccc1 (stereo unspecified)	-2	-3.8	0.68	-0.2	.	-0.9	-1.7
CCN(CC(=O)Nc1ccc(NC(C)=O)cc1)C(=O)COc1ccc(C(=O)c2ccccc2)cc1	-14	1.0	0.68	0.1	.	1.8	0.0
COc1cc2c(cc1OC)C(c1cccc([N+](=O)[O-])c1)N(C(=O)c1ccccc1C(=O)O)CC2 (stereo unspecified)	-1	-0.8	0.7	-0.7	-7%	1.8	0.6
COCC1CCCCN1C(=O)c1ccc(OC2CCN(Cc3ccccn3)CC2)cc1 (stereo unspecified)	6	2.2	0.74	0.1	13%	-17	3.9
CCNC(=O)COc1cccc(C(=O)NCc2ccccc2)c1	1	6.2	0.66	0.7	-5%	-0.7	-1.3
Cc1ccc(NC(=O)CCNC(=O)Cn2ccc3ccccc3c2=O)cc1F	13	3.2	0.56	0.1	.	1.3	-0.9
O=c1[nH]c(SCc2cccc(F)c2)nc2c1CCCC2	-4	.	.	-0.3	-5%	.	-2.6
Cc1nc2scc(-c3ccccc3)c2c(=O)o1	6	-0.5	0.71	0.0	4%	0.5	2.3
COc1ccccc1OCc1nnc(SCCN2CCOCC2)o1	6	6.2	0.71	1.1	3%	5.1	1.9
Cc1ccc(S(=O)(=O)C(CCC(=O)N2CCOCC2)S(=O)(=O)c2ccc(C)cc2)cc1	7	2.2	0.71	-0.5	0%	1.5	-0.2
COc1ccccc1-c1nc(C#N)c(N2CCc3ccccc3C2)o1	-17	-90	0.71	-0.4	25%	1.4	-1.3
O=C(COc1ccccc1/C=C\c1[nH]c(=O)[nH]c(=O)c1[N+](=O)[O-])Nc1ccccc1	-5	18	0.68	-0.3	-3%	0.3	-1.2

# Reformatted with two lines to a compound: entries from further up.
# Values run as follows: B2AR ag	UCH37 inh	E coli growth	A1 inh	Vif TR-FRET	LANA-H2A inh	HNF4A DNA FP
- COc1cc2c(cc1OC)C(c1cccc([N+](=O)[O-])c1)N(C(=O)c1ccccc1C(=O)O)CC2 (stereo unspecified)
→ -1	-0.8	0.7	-0.7	-7%	1.8	0.6
- COCC1CCCCN1C(=O)c1ccc(OC2CCN(Cc3ccccn3)CC2)cc1 (stereo unspecified)
→ 6	2.2	0.74	0.1	13%	-17	3.9
- CCNC(=O)COc1cccc(C(=O)NCc2ccccc2)c1
→ 1	6.2	0.66	0.7	-5%	-0.7	-1.3

# Remaining list, next part:
canonical_smiles	B2AR ag	UCH37 inh	E coli growth	A1 inh	Vif TR-FRET	LANA-H2A inh	HNF4A DNA FP
CN(CCCC(=O)NCCc1ccccc1)S(=O)(=O)c1ccc([N+](=O)[O-])cc1	0	3.3	0.73	-0.6	.	-0.1	0.9
CCC1Sc2ccc(S(=O)(=O)CCC(=O)Nc3ccc(NC(C)=O)cc3)cc2NC1=O (stereo unspecified)	-8	1.4	0.6	0.2	.	7.7	-3.8
FC(F)(F)c1ccc(CSc2nccn2-c2ccccc2)cc1	-3	0.6	0.77	-0.3	-6%	0.8	-1.0
O=C(C[C@H]1C[C@H](C(=O)N2CCOCC2)[C@@]2(CCC3CCCC3)c3[nH]c4ccc(Cl)cc4c3CCN2C1=O)NCC12CC3CC(CC(C3)C1)C2	1	-1.5	0.68	.	1%	.	1.5
COc1ccc(C(CC(=O)NCCCN2CCOCC2)NS(=O)(=O)c2ccc(C)cc2)cc1 (stereo unspecified)	3	3.5	0.74	0.2	11%&-2%	-4.5	3.6
O=C(Oc1ccccc1)c1c(Cl)cccc1P(=O)(O)O	3	-1.0	0.69	0.9	-1%	0.3	-2.6
CC(=O)c1c(N2CCN(C)CC2)nc(=S)n(Cc2ccccc2)c1C	-1	2.2	0.7	-0.3	-9%	1.4	-1.6
COc1cccc(C(=O)NCC(=O)OCC(=O)c2ccccc2)c1	-13	3.1	0.63	0.3	-5%	3.9	2.7
Cc1cccc(/C(N)=N/OC(=O)c2ccc(F)cc2)c1	-11	2.7	0.7	1.8	1%	-2.8	5.8
COc1ccc(C(=O)CSc2nc3nc(C)cc(C)n3n2)cc1OC	-6	-2.8	0.69	-0.2	1%	4.4	4.2
Cc1cc(=O)nc2c3ccccc3n(CC(=O)NCCCN3CCCCC3C)n12 (stereo unspecified)	4	-7.3	0.7	0.5	.	-1.6	3.1
COC(=O)c1ccc2c(=O)n(CCCCCC(=O)NCc3ccccn3)c(=O)[nH]c2c1	-4	-53	0.69	-0.8	0%	0.6	-1.9
O=C(NCCCn1ccnc1)C1CCCN(S(=O)(=O)c2cc(Cl)ccc2Cl)C1 (stereo unspecified)	105*	-0.2	0.63	0.0	.	1.2	-0.4
CC(=O)c1c(C)nc(-c2ccc(OCC(=O)Nc3cccc(C)c3C)cc2)n1O	2	5.0	0.65	0.7	2%	1.4	-1.4
O=C1c2ccccc2/C(=C\c2ccc3[nH]ccc3c2)N1c1ccccc1	-1	-4.0	.	-0.3	.	3.2	6.7
COc1ccc(CCNC(=O)C2CCCN(c3nc4ccccc4s3)C2)cc1OC (stereo unspecified)	7	-229	0.68	-0.6	.	2.9	2.5
CN(Cc1ccccc1)C(=O)COC(=O)c1ccc2c(c1)OCO2	4	0.0	0.77	-0.1	1%	-2.2	-1.2
Cc1cccc(NC(=S)NC(=O)c2ccc(Br)o2)c1C	-3	-0.3	0.72	-0.1	.	-3.5	-4.1
O=C(COC(=O)/C=C/c1ccc(Cl)cc1Cl)NCC1CCCO1 (stereo unspecified)	-7	0.2	0.69	-1.7	.	3.0	0.1
O=C(c1cc2ccccc2oc1=O)N1CCN(c2ncccn2)CC1	-12	2.5	0.73	-0.3	0%	4.0	-4.5
Cc1cccc(N2CCN(C(=O)C3CCN(c4ncnc5c4nc4n5CCCCC4)CC3)CC2C)c1 (stereo unspecified)	21	2.9	0.68	0.0	.	-0.9	2.2
COc1ccc(NC(=O)c2ccc(-n3nc(C)cc3C)cc2)cc1OC	-3	1.1	0.71	-1.9	4%	-6.2	-0.8
